# AID504770 = growth inhibitors of E. coli YBA685 in a screen for V. cholerae RctB (chromosome II replication) inhibitors; AID 504770; z-score (no concentration beside the values); E. coli YBA685 rctB-dependent plasmid, OD600 growth, 3 h; stronger effect = lower value; 0.27% of 130,000 active;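 active = z-score under -2 on both plates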;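 also: wells of about 30 µL received 100 nL stock; score is relative to mean and SD of the test wells; the first replicate is given; strong numbers were not always called active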
# Ba CapD inh = blocks the Bacillus anthracis CapD enzyme; purified CapD enzyme, fluorescence intensity read-out; stronger effect = lower value; some hits fall short of the stated cut; z-score (test concentration not listed); 0.23% of 140,000 active;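 active = z-score under -4 in either of two replicates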;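 also: stock transfer was 100 nL into about 40 µL; score is relative to mean and spread of the plate; one replicate is shown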
# An asterisk follows results filed as active; . = no result given; & = joins results of further samples. Not all compounds are listed, so the mix of outcomes need not match the whole.
compound,AID504770,Ba CapD inh
CCN(CC)CCCCCCOC(=O)NCCc1c[nH]c2ccc(OC)cc12,.,0.955
O=C(O)CC1(CC(=O)Nc2cc(Cl)cc(Cl)c2)CCCCC1,-0.55,-0.87
O=C1CS(=O)(=O)CC(=O)N1Cc1ccc(Cl)c(Cl)c1,-0.55,-0.295
NS(=O)(=O)c1ccc(N=NN2CCCCCC2)cc1,-0.1,-2.68
CC1(C)CC(n2c(SCC#N)nc3c(c2=O)C2(CCCC2)Cc2ccccc2-3)CCO1 (stereo not given),1.35,.
CN(C)S(=O)(=O)c1ccc(N2CCOCC2)nc1,-0.85,1.94
O=C(c1ccc2c(c1)OCO2)N1CCc2ccccc21,0.85,-0.505
N#CCNC(=O)CN1C(=O)c2ccccc2C1=O,0.15,0.705
C/C(Nc1ccccc1F)=C1/CCOC1=O,1.85,-0.81
Cc1ccc(N2C(=O)c3sc4nnc(-c5ccccc5)c(=O)n4c3C2=O)cc1,0.35,0.3
Cc1ccc(-c2cc(C(=O)Nc3ccc(Br)cc3F)c3ccccc3n2)o1,-0.6,3.82
CN(C)CCCN1c2ccccc2Sc2ccc(Cl)cc21,-0.2,-0.075&-0.115
Cc1[nH]nc2c1C(c1cccs1)C1=C(CCCC1=O)N2 (stereo not given),0.2,32.6
O=c1[nH]nc(-c2ccc(F)cc2)c2ccccc12,.,0.05
Nc1cccc(CN2CCCCC2)c1,-0.5,.
Cc1ccc(S(=O)(=O)OCC2COc3ccccc3O2)cc1 (stereo not given),.,-0.18
CCOC(=O)N/N=C1\CCCCC1C (stereo not given),-0.25,.
CCCn1c(=O)c2c(=S)nc(-c3ccccc3OC)[nH]c2n(CCC)c1=O,-0.8,.
S=c1nc(-c2ccccc2)[nH]c2ccccc12,-0.85,0.68
COc1ccc(C2C(C#N)=C(N)Oc3n[nH]c(-c4ccc5c(c4)OCO5)c32)c(OC)c1OC (stereo not given),.,-0.025
Cc1cc(C(=O)CC#N)c(C)n1Cc1ccccc1Cl,-0.2,.
C=CCNCC(=O)NC12CC3CC(CC(C3)C1)C2,-1.05,.
Cn1c(C(=O)C(Cl)(Cl)Cl)ccc1/C(C#N)=C/c1ccc(Cl)cc1,.,0.34
O=C(NNc1ccc(S(=O)(=O)N2CCCCC2)cn1)Nc1ccc(Cl)c(Cl)c1,0.45,.
Cc1ncc([N+](=O)[O-])n1CCN1C(=O)c2c(C(C)C)nc3ccc(F)cc3c2C1=O,.,0.31
CN(C)S(=O)(=O)N1CCC(Cc2ccccc2)CC1,-0.7,-0.51
Cc1sc(C(=O)O)c(-n2cccc2)c1C,-0.4,.
CN(c1ccc(CN2C(=O)c3ccccc3C2=O)cc1)S(C)(=O)=O,-0.9,-0.4
Cc1cc(C)nc(NS(=O)(=O)c2ccc(N=Cc3ccccc3O)cc2)n1,.,0.1
CCC(=O)OCCn1c(=O)c2ccccc2c2ccccc2c1=O,-0.65,.
CC(Sc1ncnc2sc3c(c12)CCCC3)C(=O)O (stereo not given),-3.4*,1.84
C=CCn1c(SCC(=O)Nc2ccc(S(N)(=O)=O)cc2)nc2sc3c(c2c1=O)CCCC3,.,0.28
Cc1nc2c(c(C)nn2C(C)(C)C)c(C)c1CCC(=O)NCCCc1ccccc1,0.55,3.42
O=C(O)C1(c2ccc(Cl)cc2)CCC1,-0.95,.
O=C(O)CNC1CCS(=O)(=O)C1 (stereo not given),.,-0.605
CCOC(=O)c1c(NC(=O)c2ccc(C)c([N+](=O)[O-])c2)sc(C(=O)Nc2ccc(OC)cc2)c1C,.,0.105
O=C1OC(Nc2ccc(C(F)(F)F)cc2)c2ccccc21 (stereo not given),.,-0.66
C=CCn1c(C)cc(C(=O)CN(CC)CC(=O)NC2CCS(=O)(=O)C2)c1C (stereo not given),-0.4,.
CC(C)OCC1Cn2c(nc3c2c(=O)n(C)c(=O)n3C)O1 (stereo not given),-1.1,-0.065
CN1CCN(CCN2C(=O)c3ccccc3Sc3cc(Cl)ccc3S2(=O)=O)CC1,0.5,1.17
N#Cc1cnn(-c2nc3ccccc3[nH]2)c1N,0.45,.
CCN(c1ccc(OC)cc1)c1ncnc2nc[nH]c12,-1.75,.
NS(=O)(=O)c1ccc(NNC(=O)c2cccs2)cc1,-0.45,-1.1
CCN1CCOC(=O)C1CC(=O)Nc1cccc(C)c1 (stereo not given),2.5,.
CCSc1nnc2nc3c4ccccc4c4ccccc4c3nn12,0.25,0.42
Cc1ccc2c(c1)Nc1nc3nonc3nc1N2,1.3,5.33
O=c1[nH]c(CNCC2CCCO2)nc2ccccc12 (stereo not given),-2.8,.
CC1CC(C)(C)CC2(C1)NC(=O)NC2=O (stereo not given),1.5,.
O=C(Nc1ccccc1)N1CCCN(Cc2ccc(F)cc2)CC1,0.75,-0.105
COC(=O)c1cccc(NC(=O)NC(C)C)c1,-0.9,1.02
CCOc1nccc(C(F)(F)F)c1C(=O)N(CC)c1c(C)cccc1C,-0.35,0.27
COc1ccc(C2(O)CN(c3ccccc3C)C3=[N+]2CCCS3)c(F)c1 (stereo not given),.,0.94
CC1=Nc2ccccc2N(CC(O)Cn2c3ccccc3c3ccccc32)C(=O)C1 (stereo not given),0.3,17.3
C/C(=N\NC1=NCCN1)c1ccccc1,2.5,-0.055
O=C(O)CCC1CCCCCCCCCCC1=O (stereo not given),.,-0.245
Cc1nn(-c2ccccc2)c2sc(C(=O)NC(=S)NC3CCSC3=O)cc12 (stereo not given),0.05,-1.06
CN(Cc1ccccc1)c1sc(S(C)(=O)=O)nc1S(=O)(=O)c1ccc(Cl)cc1,0.8,0.26
CCCc1c(C(=O)N2CCN(c3ccccc3OC)CC2)cnn1-c1ccccc1,-0.45,0.88
c1cncc(-c2ncc(-c3nc4ccccc4o3)c(-c3ccncc3)n2)c1,.,4.65
COc1cc(Nc2nc3nonc3nc2N2CCCCC2C)c(OC)cc1Cl (stereo not given),.,-1.01

# (more compounds)
compound,AID504770,Ba CapD inh
CC(C)n1cc(C#N)c(=O)[nH]c1=O,.,0.045
COc1cc2c(cc1OC)C(=O)N(Cc1ccc(F)cc1)CC2,-0.6,0.065
CCn1cc(C(=O)N2CCN(c3ccc(C)cc3)C(C)C2)c2cc(OC)c(OC)cc2c1=O (stereo not given),-1.85,1.64
OC(Cc1ccccc1)c1ccccc1 (stereo not given),-0.5,-0.255
CCCCN(C)C(=O)c1sc2nc(C)nc(N3CCN(c4ccccn4)CC3)c2c1C,.,-0.465
COC(=O)CNC(=O)c1ccc(Cl)cc1,2.25,-0.555
CSc1sc(C#N)c(C)c1C(=O)/C=C/N(C)C,-0.85,-1.8
O=c1nc(N(c2ccccc2)c2ccccc2)[nH]c(=O)[nH]1,1.4,.
CCOC(=O)c1ccc(NC(N)=S)cc1,.,0.28
COc1cc(/C=C/C(=O)NCc2ccc3c(c2)OCO3)cc(OC)c1OC,.,9.36
CCOC(=O)c1cc(C)n(CC(=O)Nc2ccc(C)cc2)c1C,1.2,.
O=C(Cc1ccc2c(c1)OCCO2)Nc1ccnn1C1CCCCC1,2,.
Cc1cccc(OCc2nnc(SCc3nc4ccsc4c(=O)[nH]3)o2)c1,0.65,.
COC(=O)c1cc(S(=O)(=O)NCCN(Cc2ccco2)C2CCCC2)cn1C,-1.5,0.38
COc1cc(CN2CCN(C3CCCCCC3)CC2)cc(OC)c1OC,-0.95,.
CCCc1oc2ccc(NS(=O)(=O)c3cc(Cl)ccc3Cl)cc2c1C(=O)OCC,.,0.235
CCC(=O)N1c2ccc(S(=O)(=O)CCC(=O)N3CCn4c3nc3ccccc34)cc2CC1C (stereo not given),-0.15,0.25
OC(CN1CCCCCC1)c1ccccc1 (stereo not given),-0.9,-0.295
Cc1ccc2nc(SCC(=O)Nc3cccc(C(F)(F)F)c3)[nH]c2c1,.,-0.14
CCOC(=O)c1nc(Nc2cccc(C)c2C)c2ccccc2n1,-0.55,0.995

# New compounds follow:
# Results follow in this order: AID504770, Ba CapD inh
Cn1c2ccccc2c2cnn(CC(=O)NCCc3ccccc3)c(=O)c21
 : 0.65, 6.79
CN(C(=O)CN1CCN(S(=O)(=O)c2ccc3c(c2)CCCC3)CC1)C1(C#N)CCCCC1
 : -1.25, .
CC1(C)CC(=O)C2=C(C1)OC(N)=C(C#N)C2c1ccc(-c2ccccc2Cl)o1 (stereo not given)
 : ., 0.19
O=C(/C=C/c1ccccc1)OCC(=O)N1CCc2ccccc2C1
 : 0.2, 0.705
COC(=O)c1ccccc1S(=O)(=O)CC#N
 : ., 0.42
NCCCC(N)CC(=O)NCC1NC(=O)C(CO)NC(=O)C(N)CNC(=O)C(C2CCN=C(N)N2)NC(=O)/C(=C\NC(N)=O)NC1=O (stereo not given)
 : 0.2, .
c1nc(NC2CCCCC2)c2[nH]cnc2n1
 : -0.2, 0.785
CCOc1cc(CNc2ncn[nH]2)ccc1OCC(=O)NC(C)(C)C
 : -2.45*, -0.415
COc1cc(/C=C/C(=O)NCCSc2c[nH]c3ccccc23)cc(OC)c1OC
 : -0.3, 0.745
COc1ccccc1CNC(=O)COc1ccccc1
 : -0.45, 2.08
COc1cc(/C=C2\N=C(c3ccccc3)N(c3ccc(Cl)cc3C)C2=O)cc(OC)c1OC
 : ., -1.25
COC(=O)/C(=C/c1ccccc1)c1ccccc1
 : 0.2, 0.49
Cc1ccc(OCCCC(=O)Nc2ccc3c(c2)OCO3)cc1
 : 0.15, .
CN(C(=O)COC(=O)c1cc2ccccc2cc1O)C1CCCCC1
 : -0.85, .
CCOc1cc(/C=C2\N=C(c3cccc(C)c3)OC2=O)cc(Br)c1OC(C)=O
 : ., 0.52
O=C(OC1CCCCC1)c1nnsc1Sc1ccc(Cl)cc1
 : ., 0.24
CCN(Cc1ccccc1)C(=O)C1CCN(Cc2ccc(C(F)(F)F)cc2)CC1
 : 0.45, 0.02
c1ccc(C2C3=C(CCCC3)SC3=C2CCCC3)cc1
 : -0.5, -0.615
O=C1NC(c2cc(Br)ccc2O)Nc2sc3c(c21)CCCC3 (stereo not given)
 : ., -0.165
CCCCOc1ccc(C(=O)Oc2cc(C)c3oc(C=O)c(C(=O)OCC)c3c2Br)cc1
 : ., 0.1

# Pulled by compound from the entries so far (three):
# Results follow in this order: AID504770, Ba CapD inh
O=C(OC1CCCCC1)c1nnsc1Sc1ccc(Cl)cc1
 : ., 0.24
Cc1ccc(OCCCC(=O)Nc2ccc3c(c2)OCO3)cc1
 : 0.15, .
CCCCOc1ccc(C(=O)Oc2cc(C)c3oc(C=O)c(C(=O)OCC)c3c2Br)cc1
 : ., 0.1

# (next part)
# Results follow in this order: AID504770, Ba CapD inh
O=C(CSC1=NCCCCC1)c1cccc([N+](=O)[O-])c1
 : ., 0
COc1cc(/C=C/C(=O)NC(C)C2CC3CCC2C3)cc(OC)c1OC (stereo not given)
 : 1.25, 2.5
CC(=O)Oc1ccc(OC(C)=O)c(S(=O)(=O)c2ccc(C)c(C)c2)c1
 : 0.55, -0.02
CC(C)(C)OC(=O)NC(CC(=O)NNC(=O)c1ccc2nsnc2c1)c1ccc(F)cc1 (stereo not given)
 : ., -1.03
CCOc1ccc(C2C(C(=O)OCCSCC)=C(C)NC3=C2C(=O)CC(c2ccc(OC)cc2)C3)cc1 (stereo not given)
 : ., 36.2
CCC/C=C/COC(=O)N1CCc2c([nH]c3ccccc23)C1
 : ., 1.42
C=CCOC(=O)C1=C(C)N(C)C(=O)NC1c1cc(Br)c(O)c(OC)c1 (stereo not given)
 : ., -0.065
Cc1ccc2c(c1)=C(c1sc(=O)n(CC(=O)O)c1O)C(=O)N=2
 : 0.7, 12.2
CCOC(=O)N1CCN(CC(O)c2ccc3c(c2)CCN3)CC1 (stereo not given)
 : 0, -0.785
O=C(CN1C(=O)S/C(=C\C=C\c2ccccc2)C1=O)Nc1ccc(O)cc1
 : -0.75, -0.285

# Full records, looked up by structure:
# C=CCNCC(=O)NC12CC3CC(CC(C3)C1)C2 in the list: AID504770 = -1.05; Ba CapD inh = .
# CCOC(=O)c1nc(Nc2cccc(C)c2C)c2ccccc2n1 in the list: AID504770 = -0.55; Ba CapD inh = 0.995

# Other compounds follow:
# Results follow in this order: AID504770, Ba CapD inh
O=C(O)c1cccc(N=CC23c4ccccc4C(c4ccccc42)C2C(=O)N(c4cccc5ccccc45)C(=O)C23)c1 (stereo not given)
 : ., -0.07
O=C(O)CN1C(=O)/C(=C2\SC(=S)N(NC(=O)c3cccc(O)c3)C2=O)c2ccccc21
 : ., -2.35
CNC(=O)NC(=O)C(Sc1nnc(-c2cc(OC)cc(OC)c2)o1)c1ccccc1 (stereo not given)
 : -2.8, .
CCOc1ccc(N2C(=O)NC(=O)/C(=C\c3ccc(OCC(=O)O)c(Br)c3)C2=O)cc1
 : ., 0.045
Cc1ccc(NC(=O)CN(C)C(=O)c2ccc(Br)o2)cc1
 : -0.05, .
CCN(CC)c1ncnc2c1sc1nc(C)cc(C)c12
 : -0.9&0.2, 50.6&2.23
Cc1nc2sccn2c(=O)c1S(=O)(=O)N(C)C1CCCCC1
 : 1.4, -2.44
COc1ccc(C(=O)OCC(=O)N(C)C2CCCCC2)cc1
 : -0.7, -0.645
O=C(CCn1c(=O)oc2cc(Br)ccc21)NCc1ccco1
 : 1.4, 0.235
CCOC(=O)c1cc(C#N)c(NCc2ccc(C)cc2)nc1-c1ccccc1
 : ., -0.215
CCCC(C)NS(=O)(=O)Cc1ccccc1 (stereo not given)
 : -0.5, .
O=C1CN(c2ccccc2)C(=O)N1
 : -0.65, 0.14
O=C(O)CC1N=C(Nc2nc3ccccc3s2)NC1=O (stereo not given)
 : 0.7, 0
Cc1cccc(C)c1N=C(N)N=C(N)N
 : ., 0.865
CSc1nnc(/N=C/c2c(O)ccc3ccccc23)s1
 : -0.2, -1.59

# Screens: PubChem, ICCB-Longwood Screening Facility, Harvard Medical School
